TRPML1 inh: qHTS for Inhibitors of the Human Mucolipin Transient Receptor Potential 1 (TRPML1); AID 624415, 2012; activity change, negative = inhibition, % (concentration not given with the values); 0.02% of 390,000 active; Mucolipin-1 (Homo sapiens), Q9GZU1; TRPML1-inducible cells, Ca2+ dye fluorescence, FDSS; hits give low values; inhibition of EC80 agonist-evoked calcium signal; in the data active means activity change below about -50%; inconclusive means about -30% to -50%; inactive means above about -30%;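 note: stimulus is agonist 54-4 at its EC80 concentration; % is set by controls: 0 for no effect and ±100 for the full control effect; compound concentration not given in the record; the text of the record puts the active cut at -80%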
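TRPML1-DL cells, Tet-induced overnight (~16 h, 37 °C) at 1,500 cells/well, were loaded with Ca8 no-wash dye plus quencher for 45-90 min at room temperature. Compounds were pinned during FDSS kinetic reading; agonist 54-4 at EC80 (4 uM final) then added.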
Menin MLL FP FL: qHTS Assay for Inhibitors Targeting the Menin-MLL Interaction in MLL Related Leukemias: Competition With Fluorescein Labeled MLL-derived Peptide; Fluorescence polarization, fluorescein-MLL peptide displacement from menin; FP activity change, % at 61.4 µM; 290,000 tested, under 10 active; AID 1766, 2009; inconclusive = falling polarisation curve, or a change in total fluorescence; inactive = total fluorescence flat and polarisation flat or rising; no compound was filed as active; the % refers to the polarisation; negative = inhibition;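 note: % of control where 0% means no effect; inhibitors lower the polarisation; unlabelled MLL peptide was the positive control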
Sfp inh: qHTS Assay for Inhibitors of Bacillus subtilis Sfp phosphopantetheinyl transferase (PPTase); 4'-phosphopantetheinyl transferase ffp (Bacillus subtilis), Q9F4F7; 3.5% of 310,000 active; Potency, µM, without a hit: max response, negative = inhibition, usual class: inhibitors; Biochemical Sfp PPTase activity, qHTS; active = well fitted inhibition curve with a large enough effect; inconclusive = small, poorly fitted or top-dose-only effect, or another doubt; inactive = no such curve, though single readings can be large or run the other way;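 note: the enzyme is Sfp with the accession as filed and its product quenches rhodamine fluorescence; potency is the fitted concentration of half-maximal effect; 0% = enzyme reaction without inhibitor and -100% = no enzyme wells; top concentration of the series not given in the record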
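Fluorescence-quenching assay: 15 nM Sfp-PPTase preincubated 15 min at room temperature with compound, then 5 uM rhodamine-CoA and 12.5 uM BHQ-2-labelled YbbR peptide added. Fluorescence (ex 525/em 598 nm) read at start and after 30 min; difference gives rate.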
ClpP mod: qHTS Assay for Activators of ClpP. Potency, µM (titrated, usually from 57.5 µM), without a hit: at the highest dose activity change, negative = active. purified B. subtilis ClpP, FRET peptide cleavage, 20 min. 1.9% of 340,000 active. AID 651965, 2013; active = well fitted falling curve with a large enough effect; inconclusive = small, poorly fitted or top-dose-only effect; inactive = no such curve, though single readings can be large or run the other way; note: potency is the fitted concentration of half-maximal effect; the source files actives as falling curves though it sought activators and does not explain the sign; nearly all actives have a fitted effect of over 65% in size; many hits overshoot -100%
Target sequence (P80244 whole entry, looked up): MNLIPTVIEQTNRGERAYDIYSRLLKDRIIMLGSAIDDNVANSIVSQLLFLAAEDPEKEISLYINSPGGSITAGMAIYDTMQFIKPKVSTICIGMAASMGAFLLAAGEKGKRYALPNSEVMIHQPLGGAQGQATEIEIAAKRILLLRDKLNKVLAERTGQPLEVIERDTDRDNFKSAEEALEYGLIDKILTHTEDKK
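Purified B. subtilis ClpP, 10 microg/mL final in Tris/HCl pH8 with KCl, BSA, glycerol and Tween-20, cleaved an Abz/nitrotyrosine-quenched decapeptide. Fluorescence (ex 320, em 430) was read at 0 and 20 min at room temperature. Delta was normalized to 5.8 microM ADEP and DMSO/no-enzyme controls.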
gsp ag: qHTS for Agonist of gsp, the Etiologic Mutation Responsible for Fibrous Dysplasia/McCune-Albright Syndrome: qHTS. gsp mutant cells, cAMP HTRF, 30 min; control for the full effect not named in the record. Potency, µM (highest dose often 76.9 µM), inactives show at the top dose activation (cAMP increase), hits mostly activators. 0.13% of 340,000 active. AID 624287, 2012; active = well fitted activation curve with a large enough effect; inconclusive = small, poorly fitted or top-dose-only effect, or another doubt; inactive = no such curve, though single readings can be large or run the other way; cell line not stated here;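 note: phosphodiesterase inhibitor Ro 20-1724 added with compounds to block cAMP breakdown; potency is the fitted concentration of half-maximal effect; nearly all actives have a fitted effect of over 60% in size; about a fifth of the inactives were tested at one dose only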
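Cells stably selected in G418 were plated at 2000/well, grown 16-24 hr, then given compounds in DMSO with the PDE inhibitor […] (300 uM solution added) for 30 min at 37C; cAMP was read by HTRF.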
gsp antagonist: qHTS for Antagonists of gsp, the Etiologic Mutation Responsible for Fibrous Dysplasia/McCune-Albright Syndrome: qHTS | gsp-mutant cells, cAMP HTRF, 30 min; control for the full effect not named in the record | Potency, µM (top dose mostly 76.9 µM), for the others: top-dose activity change, negative = inhibition, usual class: inhibitors | 0.4% of 340,000 active; active = falling curve of any shape with a large fitted effect; inconclusive = falling curve, mostly with a smaller effect; inactive = flat or rising curve; cell line not stated here;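 note: intracellular cAMP measured with PDE inhibitor Ro 20-1724 present during compound exposure; potency is the fitted concentration of half-maximal effect; % is set by controls: 0 for no effect and ±100 for the full control effect; nearly all actives have a fitted effect of over 65% in size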
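HTRF cAMP read-out (cAMP-d2 plus anti-cAMP antibody-K in lysis buffer, 30 min RT). Before lysis, cells are exposed to compounds with […] for 30 min at 37C in DPBS containing Ca/Mg, BSA and Tween 20.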
TRPV1 PAM: HTS Assay for Compounds that Act as Potentiators of the Vanilloid Receptor 1; TRPV1-expressing cells, Fluo-8 calcium influx, capsaicin EC20 potentiation; host cell line not named in the record; control for the full effect not named in the record; potentiation, % at 8.33 µM; AID 540277, 2011; 0.02% of 320,000 active; active means potentiation above 80%; inconclusive means 30% to 80%; inactive means below 30%; note: 0% is about no effect
Target sequence (Q8NER1 whole entry, looked up): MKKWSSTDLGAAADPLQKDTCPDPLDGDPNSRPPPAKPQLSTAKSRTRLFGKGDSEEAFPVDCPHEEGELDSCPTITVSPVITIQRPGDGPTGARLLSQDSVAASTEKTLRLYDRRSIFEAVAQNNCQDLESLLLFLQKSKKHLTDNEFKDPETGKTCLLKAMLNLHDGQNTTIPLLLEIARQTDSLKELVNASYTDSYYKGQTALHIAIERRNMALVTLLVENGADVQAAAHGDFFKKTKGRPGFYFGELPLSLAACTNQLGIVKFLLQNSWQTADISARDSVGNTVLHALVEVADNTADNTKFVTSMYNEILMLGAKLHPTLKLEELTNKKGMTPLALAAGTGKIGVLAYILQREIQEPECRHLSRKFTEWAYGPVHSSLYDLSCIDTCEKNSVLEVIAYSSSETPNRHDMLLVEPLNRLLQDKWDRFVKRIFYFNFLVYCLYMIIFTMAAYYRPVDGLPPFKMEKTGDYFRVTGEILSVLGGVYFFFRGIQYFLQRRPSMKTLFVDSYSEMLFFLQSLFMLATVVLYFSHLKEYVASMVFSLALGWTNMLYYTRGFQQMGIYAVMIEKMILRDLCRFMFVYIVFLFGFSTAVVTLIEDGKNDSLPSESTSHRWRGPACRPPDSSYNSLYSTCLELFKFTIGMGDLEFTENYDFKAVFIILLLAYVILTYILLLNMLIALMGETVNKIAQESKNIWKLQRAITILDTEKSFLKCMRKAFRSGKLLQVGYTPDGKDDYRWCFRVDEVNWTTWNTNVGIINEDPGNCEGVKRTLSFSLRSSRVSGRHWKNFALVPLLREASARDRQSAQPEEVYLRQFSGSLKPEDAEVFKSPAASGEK
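Cells expressing TRPV1 were dye-loaded with Fluo-8 and read kinetically: 10 s baseline, 3 min after compound (agonist portion), then 2 min after EC20 capsaicin (allosteric enhancer portion). Calcium-bound dye fluorescence at 480/520 nm.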
Starred values were filed as active, the others as inactive; ? = inconclusive; . = no result given; & = joins results of further samples; [ ] = dose if it differs, or a comment.

Structure,Sfp inh,gsp ag,Menin MLL FP FL,TRPV1 PAM,gsp antagonist,TRPML1 inh,ClpP mod
COc1ccc(C2C=C(c3ccccc3)Nc3nnnn32)cc1 (stereo not drawn),-11%,-20%,?,-4,2%,38,?
C=CCn1c(=O)/c(=C/c2ccsc2)s/c1=C(\C#N)C(=O)NCCN1CCOCC1,.,?,.,.,2%,12,0.7%
CCN(CC)CCCCCOc1ccccc1OC,10%,-31%[inhibitor],3.0,?,13%,32,-2.4%
COc1ccc(CNC(=O)COC(=O)c2cc(-c3ccc(Cl)s3)nc3ccccc23)cc1,-11%,22%,?,3,-3%,19,25µM*
CCN(CC)C(=O)CSc1nc2ncc(Br)cc2[nH]1,11%,19%,3.0,-1,-2%,5,-3.3%
CN1CCNC(=O)C1CC(=O)NCCc1ccccc1F (stereo not drawn),17%,-39%[inhibitor],-3.3,-3,1%,-8,.
Cc1c(NC(=O)C(C)OC(=O)C(NC(=O)c2ccco2)C(C)C)c(=O)n(-c2ccccc2)n1C (stereo not drawn),-8%,-11%,3.5,.,9%,-11,0.2%
CCOc1ccc(N2CC(C(=O)OC)CC2=O)cc1 (stereo not drawn),21%,-19%,5.5,14,6%,15,1.6%
CC(C)N(C(=O)c1ccc(-c2ccccc2F)cc1)C(C)C,-3%,-8%[15.4 µM],4.5,-23,?,3,.
COC(=O)Cc1c(C)nc2nc[nH]n2c1=O,0%,0%,5.3,-11,10%,-7,-3.0%
O=C(NCc1ccc2c(c1)OCO2)c1nnc(Cc2ccc(F)cc2)o1,2%,?,0.4,-3,2%,27,0.7%
CCn1c(-c2ccc(-c3ccccc3)cc2)c[nH]c1=S,9%,9%,3.3,-11,7%,6,?
CC1CN(CC(O)COC(c2ccc(Cl)cc2)c2ccc(Cl)cc2)CC(C)O1 (stereo not drawn),?,5%,-1.3,-10,-4%,8,-5.6%
Cc1cc(S(=O)(=O)N2CCC3(CC2)OCCN3S(=O)(=O)c2cccs2)ccc1F,.,-13%[15.4 µM],.,-7,-2%,45,.
CC(C)[C@H](NC(=O)c1ccccc1Br)C(=O)OCc1nc2ccsc2c(=O)[nH]1,.,-8%[15.4 µM],.,-2,7%,30,.
COc1ccc(C(NC(C)=O)c2cc(Cl)c3cccnc3c2O)cc1 (stereo not drawn),23%,?,-0.1,22,14%,-7,-1.6%
C=CCn1c(=NC(=O)c2cc(Cl)sc2Cl)sc2cc(S(N)(=O)=O)ccc21,5%,?,12,-12,-15%,17,?
CCOc1ccc(C(=O)OCc2nnc(-c3cccs3)o2)cc1OC,-1%,-19%,5.3,23,-17%,-2,-5.1%
CCN(CC)S(=O)(=O)c1ccc(N2CCOCC2)c(NC(=O)CN2C(=O)NC(C)(c3ccccc3)C2=O)c1 (stereo not drawn),.,3%[15.4 µM],.,7,1%,12,.
COc1cc(OC)cc(C(=O)N[C@H](C(=O)Nc2c(C)n(C)n(-c3ccccc3)c2=O)C(C)C)c1,.,20%,.,.,11%,-5,-11%
CCN(CC)CCCNc1nc(-n2nc(C)cc2C)nc2sc3c(c12)CC(C)(C)OC3,9%,22%[15.4 µM],-4.0,6,11%,-9,-5.5%
COc1cccc(OC)c1C(=O)O/N=C(\N)c1ccncc1,3%,-19%[15.4 µM],2.1,3,10%,19,0.1%
Cn1cc(-c2nnnn2-c2ccc(Cl)cc2)c(C(F)(F)F)n1,4%,32%,-2.7,-8,3%,-2,0.4%
NC(=O)C1CCN(C(=O)c2ccc3nc(N4CCCCC4)sc3c2)CC1,12%,-4%[15.4 µM],1.2,-11,3%,34,.
COc1cc(/C=C/C(=O)Nc2cc(S(=O)(=O)N3CCOCC3)ccc2N2CCCC2)cc(OC)c1OC,28µM*,27%,2.0,2,12%,0,.
O=C(NC1CCN(S(=O)(=O)c2ccc(Cl)c(F)c2)CC1)c1cccnc1,2%,-51%[inhibitor],.,?,0%,31,.
COc1ccc(NC(=O)CC2C(=O)N(C)C(=S)N2Cc2ccc3c(c2)OCO3)cc1 (stereo not drawn),?,-35%,1.5,16,-16%,7,-2.5%
NS(=O)(=O)c1ccc(-c2ccc(C=C3C(=O)c4ccccc4C3=O)o2)cc1,18%,-38%[inhibitor],0.4,9,3%,-4,0.0%
O=C1C(=O)N(c2nccs2)C(c2ccccc2F)/C1=C(\O)c1ccc2c(c1)OCCO2 (stereo not drawn),-3%,?,.,-6,-4%,-2,-1.2%
O=C(COC(=O)c1ccc(Br)cc1)Nc1cccnc1Cl,.,8%,.,-15,0%,0,-2.0%
CCOC(=O)/C(C#N)=C\c1ccc(OCC(=O)Nc2ccc(C)cc2C)c(OC)c1,5%,12%,1.2,.,45%[activator],22,-2.5%
Cc1cc(NC(=O)Nc2cccs2)no1,-11%,3%,-2.1,-2,1%,3,-1.2%
CCOC(=O)c1nc(NCc2ccccc2C)c2ccccc2n1,11%,25%[15.4 µM],-2.1,6,-15%,6,.
COc1ccc(CC(=O)OC(C)C(=O)NCc2ccc3c(c2)OCO3)cc1OC (stereo not drawn),.,-36%[inhibitor],.,-33,6%,19,-0.9%
Cc1cccnc1NC(=O)c1cc2ccccc2oc1=O,12%,16%[15.4 µM],1.3,-7,6%,-3,.
COC(=O)c1c(C)[nH]c(C(=O)NCc2ccco2)c1C,-1%,-3%[15.4 µM],4.1,-9,-9%,-7,2.7%
O=C(CN1C(=O)NC(Cc2c[nH]c3ccccc23)C1=O)NCC(F)(F)F (stereo not drawn),7%,26%,1.0,-2,11%,17,-0.8%
CCOC(=O)c1ncn2c1[C@@H]1CCNC1C(=O)c1cc(OC)ccc1-2 (stereo partly drawn),.,.,.,-6,7%,7,-3.7%
Cc1cccc(N2C(=O)CSC23CCCCC3)c1,12%,-29%,-2.0,0,-4%,-2,1.5%
Cc1ccc(S(=O)(=O)N2CCOC2CNC(=O)C(=O)NCC(C)C)cc1 (stereo not drawn),16%,2%,.,-7,2%,10,-1.4%
O=C(COC(=O)/C=C/c1cccc([N+](=O)[O-])c1)Nc1ccc(Cl)cn1,.,2%,.,-48,7%,-2,-3.1%
Cc1cccc(-c2nc3c(c(=O)c4ccccc4n3C)c(=O)n2-c2ccccc2)c1,3%,?,0.3,11,-2%,0,.
COc1ccc(C(=O)CSc2nnc(-c3cccnc3)n2Cc2ccco2)cc1,0%,-1%,3.7,4,-11%,26,0.4%
COc1ccc(OC)c(NC(=O)C(CC(=O)O)Cc2ccc(Cl)cc2)c1 (stereo not drawn),10%,-12%,-2.6,5,-1%,-5,-2.3%
CSc1ccccc1OCc1cc(C(=O)NCc2cnc(C)cn2)no1,-1%,-9%[15.4 µM],.,-10,7%,5,7.9%
CCn1ncc(CNC(=O)CCCSc2nc(-c3ccco3)cc(C(F)(F)F)n2)c1C,-24%,-11%,6.5,-16,-10%,-3,-2.3%
NC(=O)C1CCN(C(=O)c2cc(S(=O)(=O)N3CCOCC3)ccc2Cl)CC1,1%,0%[15.4 µM],0.3,8,-4%,-4,0.9%
N#Cc1ccsc1NC(=O)CCc1ccccc1,8%,25%[15.4 µM],0.2,-8,-5%,16,.
COCc1cc(C)nc2oc(C(=O)c3ccccc3)c(N)c12,7%,-3%[15.4 µM],-3.8,11,4%,1,-26%
O=C(CNC(=O)N1CC(=O)Nc2ccccc21)Nc1cccc(F)c1,8%,-13%,1.2,24,6%,27,-0.2%
Cc1ccc(NS(=O)(=O)c2ccc(C(=O)NCC(c3ccco3)N3CCCCC3)cc2)cc1 (stereo not drawn),.,-28%,.,1,4%,5,-2.0%
CCCCNc1nc(-c2ccccc2)nc(-n2ccnc2)n1,?,2%,0.5,13,-2%,11,-1.7%
COc1cccc(CNn2cnnc2)c1OCc1ccccc1F,10%,-4%,-1.1,?,1%,10,-2.8%
Cc1ccc(OCc2n[nH]c(=S)n2-c2ccc(Cl)cc2)cc1,6%,-2%[15.4 µM],-2.6,4,-15%,11,-0.6%
Cc1ccc(S(=O)(=O)NC2CCOC(C)(C)C2)cc1 (stereo not drawn),14%,-38%[inhibitor],1.9,-3,-4%,2,0.5%
O=C(O)COc1ccc(/C=C/C(=O)c2ccc3ccccc3c2)cc1,-5%,12%[15.4 µM],-1.5,12,-16%,19,-2.5%
O=C(CN1C(=O)C2CC=CCC2C1=O)Nc1nc2ccccc2s1 (stereo not drawn),0%,-6%,-3.0,-2,6%,-6,0.5%
CCC1=C(OC(=O)N(CC)CC)N2C(=O)OC(=NCC3CC3)[C@]2(C)[C@H]2C1=CC[C@H]1C(=O)N(CC(=O)OC)C(=O)[C@H]12,14%&13%,.,-0.7&3.2,-18,4%,-12,-2.3%
COc1ccc(C(=O)c2oc3nc(C)cc(C)c3c2N)cc1,-5%,-40%[inhibitor],-9.1,-16,-24%,8,-2.6%
CCCCc1c(C)c(C#N)c2nc3ccccc3n2c1NCCN(C)C,22%,16%,8.3,-15,-9%,-4,-11%
Cc1ccc(S(=O)(=O)Nc2ccccc2CNc2c(C)n(C)n(-c3ccccc3)c2=O)cc1,-6%,?,0.3,-7,-14%,11,-0.4%
O=C(O)CCCCCn1c(SCC(=O)c2ccc(O)c(O)c2)nc2ccsc2c1=O,-13%,26%,2.5,3,-5%,-20,7.9µM*

Source: PubChem

No enrichment for hits, and some 4.9% of all compounds hit somewhere here.
